Bioassay records: PubChem, several laboratories
rRNA inh HTS: inhibitors of bacterial rRNA selective over humanized ribosomes | E. coli WT GFP vs humanized-ribosome RFP mutants, fluorescence, 24 h; hits give low values; DMSO median 0, no signal -100 | GFP signal change (wild-type ribosome), % (concentration not given with the values) | actives 1.6% (n = 350,000) | AID 720706;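 active means significant combined selectivity score with lowered wild-type GFP, culture density cut under 30%, mutant RFP and density less affected; inactive means any of these conditions unmet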; further: one replicate is shown; some compounds called inactive have numbers as strong as hits
A1 inh: inhibitors of the anti-apoptotic protein A1, read as caspase activation; MEF A1-2A-BIM cells, Caspase-Glo 3/7 luminescence, 3 h; percent of clofoctol response, vehicle zero; caspase activation, % (concentration not given with the values); actives 0.066% (n = 330,000);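 active means over half of replicate activation scores above 10%, or exactly half above 10 with the replicate mean above 10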;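 further: wells of about 30 µL received 50 nL stock; many hits fall short of the cut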
ALR H2O2 inh: human ALR oxidase inhibition via reduced H2O2 | purified ALR, DTT oxidation, H2O2 HRP-luminol luminescence | inhibition, % (concentration not given with the values) | actives 3.8% (n = 290,000);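 active means mean and each replicate at 75% or more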;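 further: stock transfer was 7.5 nL into about 7.5 µL; 0% = neutral wells and 100% = wells with inactivated enzyme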
B2AR ag: human beta-2 adrenergic receptor agonism by FAP; actives 0.43% (n = 340,000); P07550; AID 504454; response, % (concentration not given with the values); Am2.2-beta2AR cells, FAP receptor internalization, flow cytometry; reference of the scale not given here;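 active means response above a set limit, near 3 SD of response in nonfluorescent compounds, cut at about 42% in these data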;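 further: stock transfer was 100 nL into about 11 µL; a reference agonist was the positive control; negative values mostly stem from fluorescent compounds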
T cruzi inh: blocks replication of Trypanosoma cruzi. T. cruzi beta-gal in NIH3T3, luminescence, 90 h. inhibition, % (no concentration beside the values). actives 1.4% (n = 300,000);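 active means mean inhibition across valid replicates above about 55%, limit read from the data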;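 further: signal also drops with host cell toxicity which is not excluded here; 0% = plate median of DMSO wells and 100% = zero luminescence signal; higher percent means less beta-gal luminescence so fewer parasites; stock transfer was 50 nL into about 50 µL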
Beta apoptosis: beta cell apoptosis inhibition; INS-1E cytokine-induced death, ATP luminescence, 48 h; percent of positive-control rescue, neutral wells zero; protection from apoptosis, % (no concentration beside the values); actives 0.8% (n = 300,000); AID 435005;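 active means all replicates at 75% or more, or half of them and the mean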;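 further: 0% = cytokine-treated negative control wells and 100% = positive control rescue; higher means more ATP so stronger rescue from cytokine killing; wells of about 40 µL received 100 nL stock; the first replicate is given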
LANA-H2A inh: blocks KSHV LANA binding to histone H2A/H2B. Q9QR71. cell-free LANA-H2A/H2B peptide, fluorescence polarization. inhibition, % (test concentration not listed). actives 0.6% (n = 320,000); in the data active means inhibition mostly above about 10%, no sharp cut-off; inactive means mostly below about 6.7%;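 further: stock transfer was 7.5 nL into about 10 µL; 0% = median of vehicle wells and 100% = median of positive control wells; one replicate is shown; the record names a cut of 25% in any replicate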
Target sequence (Q9QR71 whole entry, looked up): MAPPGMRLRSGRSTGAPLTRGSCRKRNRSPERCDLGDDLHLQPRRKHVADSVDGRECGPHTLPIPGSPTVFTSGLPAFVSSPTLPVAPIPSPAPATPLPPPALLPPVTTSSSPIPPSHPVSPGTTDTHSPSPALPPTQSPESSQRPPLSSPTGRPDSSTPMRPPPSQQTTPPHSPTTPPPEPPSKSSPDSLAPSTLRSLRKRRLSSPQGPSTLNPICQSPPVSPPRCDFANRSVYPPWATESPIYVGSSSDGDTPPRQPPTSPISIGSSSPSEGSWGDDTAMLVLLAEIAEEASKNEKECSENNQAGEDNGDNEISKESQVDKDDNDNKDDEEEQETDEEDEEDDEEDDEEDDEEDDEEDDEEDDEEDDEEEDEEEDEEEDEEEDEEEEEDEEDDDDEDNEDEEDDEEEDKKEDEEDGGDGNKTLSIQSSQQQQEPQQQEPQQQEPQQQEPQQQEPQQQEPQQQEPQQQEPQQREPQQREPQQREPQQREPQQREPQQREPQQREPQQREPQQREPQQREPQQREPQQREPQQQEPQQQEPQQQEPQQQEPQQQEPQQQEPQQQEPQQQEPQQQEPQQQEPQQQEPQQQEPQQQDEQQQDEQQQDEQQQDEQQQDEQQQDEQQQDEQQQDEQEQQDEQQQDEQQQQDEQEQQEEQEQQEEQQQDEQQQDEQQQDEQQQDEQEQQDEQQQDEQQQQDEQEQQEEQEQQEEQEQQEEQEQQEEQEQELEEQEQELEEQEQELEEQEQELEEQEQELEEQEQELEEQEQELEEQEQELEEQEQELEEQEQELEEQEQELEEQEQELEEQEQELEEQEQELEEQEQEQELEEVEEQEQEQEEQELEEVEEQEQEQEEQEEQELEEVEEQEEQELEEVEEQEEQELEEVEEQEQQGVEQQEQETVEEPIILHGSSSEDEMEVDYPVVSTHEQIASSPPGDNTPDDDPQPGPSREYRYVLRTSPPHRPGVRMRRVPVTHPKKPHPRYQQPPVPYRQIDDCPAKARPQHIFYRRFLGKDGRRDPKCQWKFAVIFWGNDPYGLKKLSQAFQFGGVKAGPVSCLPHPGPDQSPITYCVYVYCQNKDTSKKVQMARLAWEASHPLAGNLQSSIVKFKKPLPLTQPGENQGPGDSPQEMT
Calb FLC: C. albicans growth modulation with fluconazole | C. albicans CaCi-2 (fluconazole-resistant clinical isolate) + fluconazole, Alamar Blue growth, 48 h | growth inhibition, % (test concentration not listed) | actives 0.57% (n = 300,000);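 active means most replicates above 75%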;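 further: all wells also contain fluconazole at 8 µg/ml as a sub-toxic cotreatment; 0% = median of DMSO wells and 100% = median of geldanamycin control wells; wells of about 8 µL received 7.5 nL stock; the first replicate is given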
rRNA inh HTS OD600: second read-out of rRNA inh HTS, no call of its own (marks repeat the call); OD600 change, %; measured here: OD600 growth;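 optical density of the mix in the first replicate; 0 = DMSO median and -100 = no signal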
rRNA inh HTS RFP: recorded beside rRNA inh HTS, whose call it bears; RFP signal change, %; measured here: RFP humanized mutant strains;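 first replicate; 0 = DMSO median and -100 = no signal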
An asterisk follows results filed as active; / = not tested or not shown.

SMILES	rRNA inh HTS	rRNA inh HTS OD600	rRNA inh HTS RFP	A1 inh	ALR H2O2 inh	B2AR ag	T cruzi inh	Beta apoptosis	LANA-H2A inh	Calb FLC
Cc1ccc2nc(-c3ccccc3)c(CN3CCOCC3)n2c1	13.4	3.8	-0.9	0.6	-11.6	-19.1	7.8	-0.8	0.2	-47.3
O=Cc1c(NCc2ccccc2Cl)c2ccccc2[nH]c1=O	-12.8	-4.7	-1.6	0.3	-3.8	-5.2	1.2	8.5	2.5	-9.3
CCOC(=O)c1nn(-c2ccccc2)c(C(=O)OCC)c1N	-0.1	-3.7	-3.9	0.1	11.8	-11.8	3.2	0.0	-0.9	0.3
CC1C(=O)N2CCCc3cc(NC(=O)c4ccccc4F)cc1c32 (stereo unspecified)	-1.8	-7.5	-1.1	0.1	-9.9	3.7	1.2	-1.4	8.1	0.7
Cc1ccc2c(c1)c(C)cc[n+]2Cc1ccccc1	/	/	/	0.6	-6.0	4.3	1.9	/	0.6	-15.7
CC1C(=O)OC(c2ccc(Cl)cc2)C(C)(C)C1=O (stereo unspecified)	6.7	7.3	-1.4	0.0	-4.2	-2.5	-7.0	-3.6	0.4	6.3
O=C(O)c1cc(S(=O)(=O)Nc2ccc3c(c2)OCCO3)c(Cl)cc1Cl	3.2	10.8	-0.1	-0.3	-13.1	-6.3	-4.0	-3.9	4.7	1.3
Cc1ccc(C)c(SCC(=O)OCC(=O)Nc2ncc(C(F)(F)F)cc2Cl)c1	-9.0	1.2	-3.1	0.8	-13.2	-2.2	-20.9	-6.9	2.5	-10.9
CCOc1ccc(Br)cc1S(=O)(=O)Nc1ccc(S(=O)(=O)Nc2cc(C)on2)cc1	-17.8	-17.6	0.0	1.2	13.7	-0.6	/	5.5	4.5	/
Cc1[nH][nH]c(=O)c1C(c1ccc(O)c(Br)c1)c1c(C)[nH][nH]c1=O	13.6	20.7	-3.4	0.7	70.4	-3.2	-22.6	/	4.3	7.3
O=C(c1nc2nc(-c3ccccc3)cc(C(F)(F)F)n2n1)N1CCCCC1	/	/	/	0.5	-2.3	-7.7	/	5.2	-6.8	/
CC(C)[C@H](NC(=O)N1c2ccccc2NC(=O)[C@@H]1C(C)C)C(=O)N[C@@H](Cc1ccccc1)C(=O)O	/	/	/	0.0	-27.4	0.0	-0.1	-4.9	-8.6	-6.7
O=C(CN1CCN(S(=O)(=O)c2ccc3ccccc3c2)CC1)Nc1ccc2c(c1)CCC2	/	/	/	1.0	-6.8	-1.6	11.9	-9.2	4.8	0.8
O=C(C1CCOCC1)N1CCC(CO)(CCc2ccccc2)CC1	11.1	5.1	1.0	0.4	13.4	-5.8	-1.8	-2.5	-4.5	-9.8
CCN(C(=O)CSc1nc(C)nc2sc(C)c(C)c12)c1ccc(F)cc1	/	/	/	0.1	-0.7	-3.6	/	-6.3	/	/
COc1ccc(/C=N/NC(=O)c2ccccc2O)cc1Cn1nnc2ccccc21	-23.0*	-15.3*	-0.2*	0.2	12.8	-11.7	3.7	-3.1	-1.7	-8.2
COCc1cc(=O)[nH]c(SCC(=O)N2CCOCC2)n1	5.6	10.9	2.4	0.3	-9.6	-4.8	-0.6	-2.3	3.3	4.3
O=c1[nH]c2cccnc2c2ccsc12	0.1	4.3	4.6	0.0	-2.1	-1.6	9.4	0.6	-2.4	5.6
O=C(CNS(=O)(=O)c1ccccc1)NCc1ccco1	16.9	21.5	0.4	1.2	/	4.8	-8.5	-0.3	3.6	-4.8
COC(=O)N/N=C/c1cccc(OCCSc2ccc(Cl)cc2)c1	-11.7	-19.8	1.4	0.3	0.1	-2.4	16.1	3.0	1.2	19.4
O=c1[nH]c2ccc(S(=O)(=O)N3CCN(Cc4ccccc4)CC3)cc2[nH]c1=O	/	/	/	0.3	-5.9	13.2	-9.6	-5.6	0.8	-11.4
COc1ccc(N2CCN(Cc3ccc(Br)s3)CC2)cc1	/	/	/	0.4	68.8	-3.2	8.6	-4.4	0.9	1.1
Cc1cc(C)c(C)c(S(=O)(=O)N2C(=S)NC(=O)C2C(C)C)c1C (stereo unspecified)	/	/	/	-0.4	96.3*	7.5	7.5	7.4	1.8	-5.5
CCCC(C(=O)NC(C)(C)C)N(Cc1ccc(F)cc1)C(=O)c1snc(C(N)=O)c1N (stereo unspecified)	-13.8	-12.9	-3.8	0.9	-2.2	-9.9	-3.3	/	-4.4	-9.0
Cc1ccc(S(=O)(=O)CCC(=O)OCC(=O)Nc2ncc(Cl)cc2Cl)cc1	/	/	/	0.8	/	8.0	-11.2	-3.0	1.5	0.2

(list continues)
SMILES	rRNA inh HTS	rRNA inh HTS OD600	rRNA inh HTS RFP	A1 inh	ALR H2O2 inh	B2AR ag	T cruzi inh	Beta apoptosis	LANA-H2A inh	Calb FLC
O=C(NC(=S)NC1CCCC1)c1ccccc1	-26.0*	-15.9*	-6.4*	-0.3	2.3	-1.1	0.9	0.9	2.1	-23.7
O=C(CSC(=S)N1CCCC1)c1cc(Br)cc(Br)c1O	-30.1*	-23.5*	-2.5*	-0.1	24.1	/	-10.2	-0.4	6.9	10.5
CCOC(=O)CC(=O)N/N=C/c1c(N)n(C)c(=O)n(C)c1=O	10.3	11.9	2.9	0.4	/	6.3	-2.0	-5.8	2.6	-2.0
COc1ccc(C(=O)COC(=O)c2ccc(N(C)C)cc2)cc1	5.6	-2.8	-0.6	-0.2	8.9	6.8	-15.3	-2.2	1.9	-12.7
CCn1nc(NC(=O)C(C)(C)C)c2cc3cccc(C)c3nc21	-1.0	5.8	-2.4	0.0	-28.8	4.8	4.8	-6.5	8.0	-2.8
COc1cc(OC)cc(C(=O)NNC(=O)c2nn(C)c(=O)c3ccccc23)c1	-1.1	0.9	-0.1	1.0	2.8	-5.5	/	0.3	-0.4	/
Cc1ccc(SCC(=O)NC(=O)NCc2ccccc2)c(C)c1	/	/	/	-0.4	/	-6.9	4.1	-6.9	-7.3	-3.7
CNc1c([N+](=O)[O-])cnn1-c1ccc(Cl)cc1	9.5	5.6	-1.5	-1.0	2.6	4.6	-0.3	-2.8	-1.4	-6.6
CCn1c(CNc2ccc(OC)cc2)nnc1SCC(=O)Nc1ccc(F)cc1	/	/	/	0.7	/	5.4	-6.6	6.2	-2.6	-2.2
CC(=O)c1c(C)[nH]c(C(=O)OCc2ccccc2)c1C	-7.6	-11.3	-0.9	-0.1	-2.9	1.8	7.4	-12.5	5.8	6.0
CCOC(=O)COc1nc(-c2ccc(C)cc2)cc(-c2ccco2)c1C#N	-0.7	6.6	1.4	0.3	-0.4	15.0	-7.5	4.0	4.6	10.9
CC(=O)Nc1ccc(CN2CCC(n3nccc3NC(=O)CCc3ccccc3)CC2)cc1	8.9	10.6	-1.3	-0.8	1.7	-4.4	-13.9	/	2.1	3.8
CC(C)(Oc1ccc(Cl)cc1)C(=O)NC1CCSC1=O (stereo unspecified)	-6.2	-3.9	-0.4	0.1	-2.6	-0.8	-4.6	-2.3	-11.2	13.8
COC(CNC(=O)c1cc(C(=O)c2c(-c3c(Cl)cccc3Cl)noc2C)c[nH]1)OC	/	/	/	-1.4	/	5.7	-9.6	0.0	6.0	9.6
Cc1cccc(N2C(=O)CC(N3CCN(Cc4ccc5c(c4)OCO5)CC3)C2=O)c1 (stereo unspecified)	/	/	/	-0.1	-2.9	2.5	8.0	-1.1	-1.0	0.9
CCOC(=O)C1=C(COC(=O)c2cccnc2SC)NC(=O)NC1C (stereo unspecified)	-7.6	-17.9	2.5	-2.1	-7.0	3.3	/	4.0	-6.5	/
O=C(COc1nsnc1N1CCOCC1)Nc1ccc(Br)cc1	2.6	-13.8	-1.1	0.7	/	-12.1	8.6	-0.4	6.3	-5.0
Cc1ccccc1CNc1ncnc2cc(Cl)ccc12	5.4	18.8	1.3	1.1	-0.3	-5.6	4.0	2.5	0.3	6.3
Cn1c(NN)nc2c1c(=O)n(Cc1ccccc1)c(=O)n2C	1.2	4.4	-2.1	0.4	-0.9	-2.2	-7.3	4.3	3.5	4.3
CC1=C(C)CC(C(=O)NNC(=O)c2ccccc2O)C(C(=O)O)C1 (stereo unspecified)	/	/	/	0.0	7.8	-13.0	/	3.6	1.0	-7.6
C/[N+]([O-])=C\C1C(=O)CCCC1=O	9.3	4.5	-2.1	0.2	0.0	2.4	-0.8	-3.6	-4.3	-5.3
CCS(=O)(=O)N1CCC(C(=O)Nc2cccc(C(C)=O)c2)CC1	/	/	/	-0.2	-24.1	-4.6	4.7	-4.5	1.1	-2.1
COC(=O)C1C(C(C)C)N(c2ccccc2)OC1(C)O (stereo unspecified)	6.1	8.4	4.5	1.1	86.0*	7.2	-2.6	-4.9	-0.8	-5.7
CCOc1ccc(/C=N/NC(=O)CSc2ccccn2)cc1O	3.2	1.0	4.9	0.2	98.9*	-6.2	4.1	6.7	-1.4	0.0
COc1ccc(CSc2nnc(C)n2N)cc1	/	/	/	0.3	-0.8	1.0	-1.7	-11.5	-0.7	2.4
CC(NC(=O)CCCc1c[nH]c2ccccc12)c1ccc(F)cc1 (stereo unspecified)	1.6	-13.3	-3.5	-0.9	8.4	4.6	-3.0	-4.5	-2.3	-2.4
Fc1ccc(N/N=C/c2ccc(N3CCOCC3)cc2)c(F)c1	3.2	0.0	-4.2	-5.6	-12.5	2.2	64.6*	0.6	-1.0	-32.2
O=C(COc1ccc2ccccc2c1)NNC(=O)Cc1ccccc1	7.8	7.2	0.6	-1.0	-22.6	1.6	-1.0	-2.6	2.7	-0.3
CCCNC(=O)C1CC(c2ccccc2[N+](=O)[O-])=NO1 (stereo unspecified)	7.0	11.0	-1.2	0.0	2.6	4.2	-13.5	-3.2	2.4	-14.2

Copied from the listing for reference:
SMILES	rRNA inh HTS	rRNA inh HTS OD600	rRNA inh HTS RFP	A1 inh	ALR H2O2 inh	B2AR ag	T cruzi inh	Beta apoptosis	LANA-H2A inh	Calb FLC
CCOc1ccc(/C=N/NC(=O)CSc2ccccn2)cc1O	3.2	1.0	4.9	0.2	98.9*	-6.2	4.1	6.7	-1.4	0.0
COc1ccc(CSc2nnc(C)n2N)cc1	/	/	/	0.3	-0.8	1.0	-1.7	-11.5	-0.7	2.4
CC(NC(=O)CCCc1c[nH]c2ccccc12)c1ccc(F)cc1 (stereo unspecified)	1.6	-13.3	-3.5	-0.9	8.4	4.6	-3.0	-4.5	-2.3	-2.4
Fc1ccc(N/N=C/c2ccc(N3CCOCC3)cc2)c(F)c1	3.2	0.0	-4.2	-5.6	-12.5	2.2	64.6*	0.6	-1.0	-32.2
O=C(COc1ccc2ccccc2c1)NNC(=O)Cc1ccccc1	7.8	7.2	0.6	-1.0	-22.6	1.6	-1.0	-2.6	2.7	-0.3
CCCNC(=O)C1CC(c2ccccc2[N+](=O)[O-])=NO1 (stereo unspecified)	7.0	11.0	-1.2	0.0	2.6	4.2	-13.5	-3.2	2.4	-14.2

Not all compounds are listed; count on the stated rates, not on these rows.
